Screening data: PubChem, National Center for Advancing Translational Sciences (NCATS)
Rango complex inh: qHTS Assay for Inhibitors of Rango (Ran-regulated importin-beta cargo) - Importin beta complex formation; Rango CFP/YFP FRET sensor + importin beta, 45 min; Potency, µM (titrated, usually from 92.2 µM), without a hit: at the top dose inhibition of complex formation; actives 0.031% (n = 340,000); AID 540263, 2011; active = rising FRET ratio curve, often small or poorly fitted; inconclusive = mostly compound fluorescence or quenching in the first reads; inactive = flat curves in all reads;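 further: potency means the concentration at half of the fitted maximal effect; 0% = DMSO wells and 100% = buffer wells lacking importin beta; nearly all actives have a fitted effect of over 15% in size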
Target sequence (Q14974 whole entry, looked up): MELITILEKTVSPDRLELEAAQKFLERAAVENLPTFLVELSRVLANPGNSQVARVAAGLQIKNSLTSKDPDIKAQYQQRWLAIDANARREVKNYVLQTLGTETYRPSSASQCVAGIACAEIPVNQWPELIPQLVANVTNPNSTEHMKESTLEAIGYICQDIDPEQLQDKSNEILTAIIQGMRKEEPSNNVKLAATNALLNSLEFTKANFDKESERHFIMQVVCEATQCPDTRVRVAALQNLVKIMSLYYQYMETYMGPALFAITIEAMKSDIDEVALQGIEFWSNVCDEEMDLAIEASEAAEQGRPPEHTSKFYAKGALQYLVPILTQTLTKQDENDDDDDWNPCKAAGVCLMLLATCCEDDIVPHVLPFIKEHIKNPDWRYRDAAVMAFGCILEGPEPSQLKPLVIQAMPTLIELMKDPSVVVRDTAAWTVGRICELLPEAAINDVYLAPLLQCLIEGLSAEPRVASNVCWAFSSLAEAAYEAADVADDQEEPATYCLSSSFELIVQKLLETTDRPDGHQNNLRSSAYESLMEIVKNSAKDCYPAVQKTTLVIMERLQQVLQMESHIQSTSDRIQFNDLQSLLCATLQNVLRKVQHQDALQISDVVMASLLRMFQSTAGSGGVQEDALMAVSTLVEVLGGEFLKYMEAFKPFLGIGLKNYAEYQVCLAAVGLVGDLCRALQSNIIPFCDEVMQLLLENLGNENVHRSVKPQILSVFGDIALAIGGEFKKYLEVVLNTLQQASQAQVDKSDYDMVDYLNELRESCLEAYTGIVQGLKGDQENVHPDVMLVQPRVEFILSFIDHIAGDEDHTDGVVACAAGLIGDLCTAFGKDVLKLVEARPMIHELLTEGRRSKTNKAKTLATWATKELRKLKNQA
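FRET biosensor (snurportin 1 IBB flanked by EYFP and cerulean), 50 nM, with compound 5 min, then 0.125 microM importin beta in PBS, 1 mM DTT, 0.02% Tween-20, 0.1% BSA. CFP/YFP ratio read after 45 min at room temperature; pre-read flags interference.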
miR-21 reporter: qHTS Assay for Modulators of miRNAs and/orActivators of miR-21. HeLa miR-21 FLuc reporter, luciferase, 48 h. Potency, µM (series often up to 38.3 µM), without a hit: at the highest dose reporter change, positive = more light. 340,000 tested, under 10 active. AID 2288, 2010; active = well fitted rising curve with a large enough effect; inconclusive = small, poorly fitted or top-dose-only effect; inactive = no such curve, though single readings can be large or run the other way;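 further: % of control where 0% means no effect; miR-21 action dims this reporter so a rising signal means less miR-21 action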
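Using DMEM plus 10% FBS, HeLa miR-21-FLuc cells are incubated with test compounds (final up to about 40uM) for 48 hours; firefly luciferase signal is then imaged following reagent-mediated lysis.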
Rango release inh: qHTS Assay for Inhibitors of RanGTP induced Rango (Ran-regulated importin-beta cargo) - Importin beta complex dissociation. Potency, µM (highest dose often 46.1 µM), inactives show top-dose activity change, negative = inhibition. Biochemical FRET Rango-importin beta, RanGTP-induced dissociation. actives 0.071% (n = 340,000); active means falling FRET ratio curve, often poorly fitted, with flat reads before Ran was added; inconclusive means other falling curves, or compound fluorescence or quenching; inactive means flat or rising ratio curve;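 further: potency means the concentration at half of the fitted maximal effect; % of control where 0% means no effect; nearly all actives have a fitted effect of over 45% in size; -100% = wells without RanGTP and RCC1; the record marks most hits as doubtful in a second field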
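Two FRET readings bracket the reaction: one 5 min after compound meets Rango–importin beta, another 45 min after RanGTP-RCC1 (0.6 uM Ran, 0.2 uM RCC1, 2 mM GTP) is added. Only the second defines inhibition.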
GLA inh pH 4.5: qHTS Assay for Inhibitors of Human alpha-Galactosidase at pH 4.5; activity change, negative = inhibition, % at 105 µM; 230,000 tested, under 10 active; purified enzyme, 4-MU-alpha-Gal fluorescence, pH 4.5; Alpha-galactosidase A (Homo sapiens), P06280; inconclusive = small, poorly fitted or top-dose-only inhibition, or a rising curve; inactive = flat fitted curve, though single readings scatter; no compound was filed as active;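 further: 0% = full activity with enzyme and -100% = basal without enzyme; dose as in the result columns while the protocol names 77 µM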
Numbers without * were called inactive; ? = inconclusive; · = no result given; & = joins results of further samples.

structure | Rango complex inh | miR-21 reporter | Rango release inh | GLA inh pH 4.5
COC(=O)c1cc(OC)c(OC)cc1NC(=O)Nc1ccc(OC)cc1OC | 0.1% | -3% | -4% | ·
O=C(COC(=O)C1CCN(c2ccc(C(F)(F)F)cn2)CC1)Nc1cc(F)ccc1F | -0.4% | · | -4% | ·
O=C(NC1CC2CCC1C2)C1COc2ccccc2O1 (stereo unspecified) | 2.5% | -25% | 16% | -3
O=C1N(Cc2cccnc2)C[C@@H]2C[C@@H](c3ccc(-c4ccccc4)cc3)N3CCC[C@@]123 | 0.9% | 20% | -7% | -4
CC(C)(C)[C@H]1COC(=O)CC/C=C\C[C@@H](CC(=O)N(CCO)Cc2ccccc2)C(=O)N1 | 8.5% | · | 15% | ·
COc1ccc(C(O)P(=O)(O)CCc2ccccc2)cc1 (stereo unspecified) | 1.5% | 0% | 6% | -13
O=C(NN=C(c1ccccc1)c1ccccc1)C(CCl)C1CCCCC1 (stereo unspecified) | 0.8% | · | 21% | ·
C1CCN2C[C@@H]3C[C@@H](CN4CCCC[C@@H]34)[C@H]2C1 | 0.0% | · | -1% | -7
C=CCOC(=O)C1=C(C)NC(SCC(=O)OCC)=C(C#N)C1c1ccc(O)c(OC)c1 (stereo unspecified) | 1.8% | -17% | -15% | -3
CCc1cccc(C)c1NC(=O)CSc1nc(-c2ccccc2F)nc2nc[nH]c12 | -5.3% | -5% | 5% | 5
O=C(CN1C(=O)c2ccccc2S1(=O)=O)c1ccc(Cl)cc1Cl | -0.3% | · | -2% | ·
CCOC(=O)/C=C/C(=O)OCC(=O)Nc1cccc(Br)c1 | 1.6% | 10% | 22% | -12
O=C(Nc1cccc2nsnc12)c1ccc2c(c1)OCCO2 | 4.9% | -38% | ? | -10
Cc1c(C(=O)N2CCCCC2)c(S(=O)(=O)NCc2ccc(Cl)cc2)c(C)n1C | -1.4% | 0% | 1% | ·
O=C1CCC(C(=O)N2CCN(c3cnccn3)CC2)CN1CCc1ccc(Cl)cc1 (stereo unspecified) | -2.9% | -1% | 7% | ·
COC(=O)c1cccc(Oc2cccc(Cl)n2)c1 | 0.9% | -13% | 25% | 13
CCCn1c(SCC(=O)Nc2cc(C)on2)nc2c1c(=O)n(C)c(=O)n2C | -0.2% | · | 4% | ·
COc1cc(NC(=S)NCc2ccc(S(N)(=O)=O)cc2)cc(OC)c1 | -3.2% | 1% | -4% | 0
COc1cccc(OC)c1C(=O)OCC(=O)/C(C#N)=C(\C)N | 0.3% | -4% | 0% | -4
CCOC(=O)CSc1nc2ccc(C)cc2cc1C#N | ? | -42% | -6% | -5
COc1ccccc1-n1c(=S)sc2c(=O)n(Cc3ccco3)c(SC)nc21 | -2.4% | -8% | -5% | -7
O=C(NS(=O)(=O)c1ccccc1)c1ccccc1 | 0.3% | -1% | 0% | 5
C[C@H]1C(=O)N(c2ccccc2)[C@@H]1c1ccccc1 | -0.7% | · | 21% | ·
CCN(CC)S(=O)(=O)c1ccc(Cl)c(NC(C)=O)c1 | -0.1% | -1% | 11% | 0
COC(=O)COc1ccc(S(=O)(=O)NCc2ccc3c(c2)OCO3)cc1C | -0.1% | -2% | 0% | ·
O=C(NNS(=O)(=O)c1ccc([N+](=O)[O-])cc1)C(=O)Nc1cccc(C(=O)O)c1 | 7.2% | -1% | 2% | ·
O=C(NC(=S)N1CCN(c2ccc(C(F)(F)F)cc2[N+](=O)[O-])CC1)c1cccs1 | ? | -3% | 11% | -12
CNc1nc(-c2ccc(S(=O)(=O)N3CCCCC3)cc2)cs1 | 0.6% | · | 22% | ·
COc1ccc(NC(=O)COC(=O)Cn2c(C)nc3ccccc32)cc1OC | 1.2% | -4% | -12% | 5
COC(=O)C1C(=O)/C(=C/N(C)C)C(=O)CC1(C)C (stereo unspecified) | ? | 0% | -4% | 1

Some entries already given with just Rango release inh and miR-21 reporter:
| Structure | Rango release inh | miR-21 reporter |
| --- | --- | --- |
| CC(C)(C)[C@H]1COC(=O)CC/C=C\C[C@@H](CC(=O)N(CCO)Cc2ccccc2)C(=O)N1 | 15% | · |
| COc1ccc(C(O)P(=O)(O)CCc2ccccc2)cc1 (stereo unspecified) | 6% | 0% |

The list continues:
structure | Rango complex inh | miR-21 reporter | Rango release inh | GLA inh pH 4.5
CCn1c(SCc2cccc(F)c2)nnc1-c1ccncc1 | -3.1% | 3% | -4% | ·
CCOC(=O)C1(Cc2ccccc2C)CCCN(C(=O)c2cc(CC)nn2C)C1 (stereo unspecified) | 0.7% | -5% | 2% | 1
O=C(CCC(=O)N1CCCCC1)Nc1nnc(C2CCCCC2)s1 | -1.2% | -5% | -3% | ·
C=CCn1cnc2c(c1=O)c1nc3ccccc3nc1n2/N=C/c1ccccn1 | 4.5% | 1% | -15% | -8
NS(=O)(=O)c1ccc(CNC(=O)/C=C/c2ccccc2)cc1 | -4.9% | -11% | -8% | 5
COC(CNC(=O)[C@H](CSCc1ccccc1)N1Cc2ccccc2C1=O)OC | -0.9% | 1% | 21% | 4
S=C(NC1CCCCC1)N1CCN(c2ncccn2)CC1 | -5.5% | -5% | 13% | 2
O=C(N/C(=C\c1ccc(Cl)cc1)C(=O)N1CCCCC1)c1ccco1 | -0.1% | -5% | -2% | ·
CCOC(=O)C1(CCOC)CCN(Cc2ccncc2)CC1 | 0.3% | -1% | ? | 4
COc1ccc(C(=O)NCCS(=O)(=O)N2CCCC2)cc1 | 0.5% | · | 22% | ·
O=C(Nc1ccc(N2CCOCC2)cc1)c1ccc2ncsc2c1 | 6.8% | · | -16% | ·
Cc1ccc(-c2nnc(SCC(=O)NC3CCCc4ccccc43)n2N)cc1 (stereo unspecified) | 1.8% | -2% | 2% | -5
COc1ccc2oc(-c3ccc(C)c(NC(=O)c4ccc(N5CCOCC5)c([N+](=O)[O-])c4)c3)nc2c1 | 3.7% | -47% | 7% | -2
Cc1ccccc1NC(=S)NC(NC(=O)C(C)(C)C)C(Cl)(Cl)Cl (stereo unspecified) | -3.3% | -2% | 17% | -10
CCCOc1ccc(Cn2c(=O)oc3ccc(C)cc32)cc1 | 2.0% | -15% | -11% | ·
COCCCn1c(C)nnc1SCC(=O)Nc1ccc(C(C)=O)cc1 | 2.9% | -2% | 0% | ·
O=C(Nc1ccc(OCC(=O)N2CCN(S(=O)(=O)c3ccccc3)CC2)cc1)c1ccco1 | 4.9% | 0% | 1% | -4
CC[C@@]1(C(=O)OC)N[C@H](CN(C)C(=O)Nc2ccccc2)[C@@H]2C(=O)N(C)C(=O)[C@@H]21 | -1.8% | · | 8% | ·
CCOC(=O)N1CCN(C(=O)c2ccc(CS(=O)c3ccccc3)o2)CC1 (stereo unspecified) | -1.2% | -2% | 9% | ·
CCc1ccc2nc(NC(=O)c3cc(C)on3)sc2c1 | 0.3% | -8% | 3% | 5
O=C(/C=C/c1ccccc1O)c1ccco1 | ? | 19% | -6% | ·
COC(=O)CCc1n[nH]c(=O)[nH]c1=O | -2.7% | -2% | -1% | 1
CC1=C(C)CC(C(=O)NCCc2ccc(F)cc2)C(C(=O)O)C1 (stereo unspecified) | -0.3% | -1% | 9% | ·
O=C1NC[C@H](Cc2ccccc2)N(CC2CCN(CC3CCCC3)CC2)C1=O | 0.2% | · | -1% | ·
Cc1cccc[n+]1CC(=O)c1ccc(NC(=O)c2ccccc2)cc1 | 3.8% | 0% | 3% | ·
Cc1csc(SC(C)C(=O)NCc2ccc3c(c2)OCO3)n1 (stereo unspecified) | -2.7% | -3% | 6% | -8
O=C(CCl)Nc1cccc(S(=O)(=O)N2CCCCCC2)c1 | -1.5% | ? | -6% | 14
CCOc1ccc(/C=N/n2c(SC)nnc2-c2ccccc2)cc1OCC | 1.1% | -1% | 0% | 5
CCOc1ccc(CN2CCCN(C)CC2)cc1 | 8.3% | -1% | -1% | -1
CCOC(=O)NN1C(=O)c2ccccc2NC1c1cccs1 (stereo unspecified) | -0.3% | -1% | -3% | ·
COCCNC(=O)/C(C#N)=C1\N=C(NC(=O)c2cccs2)c2ccccc21 | 3.1% | -2% | -16% | ·
COc1cccc(CNC(=O)C(C)n2ccc3cc(S(=O)(=O)N4CCCCCC4)ccc32)c1 (stereo unspecified) | -3.2% | 16%&18% | 4% | ·
Cc1csc(NC(=O)CSc2nc(=O)n(CCN(C)C)c3c2CCCC3)n1 | -1.2% | · | -5% | ·
Cc1ccc(N2C(=O)N(CC(=O)N(C)Cc3ccccc3)C(=O)C2C)cc1 (stereo unspecified) | 3.9% | -5% | 0% | -3
CC(C(=O)Nc1ccccc1C(=O)N1CCCC1)n1nnc2ccccc21 (stereo unspecified) | -0.8% | -8% | 3% | 0
CSc1ccc(C(=O)C2CCCN(C(=O)c3nn(C)c(=O)c4ccccc34)C2)cc1 (stereo unspecified) | 1.2% | -1% | 9% | -15
c1cc(CNCCN2CCNCC2)ccn1 | 13% | · | 54% | ·

Compounds shown so far containing an aryl thioether with sulfur outside any ring:
structure | Rango complex inh | miR-21 reporter | Rango release inh | GLA inh pH 4.5
CCc1cccc(C)c1NC(=O)CSc1nc(-c2ccccc2F)nc2nc[nH]c12 | -5.3% | -5% | 5% | 5
CCCn1c(SCC(=O)Nc2cc(C)on2)nc2c1c(=O)n(C)c(=O)n2C | -0.2% | · | 4% | ·
CCOC(=O)CSc1nc2ccc(C)cc2cc1C#N | ? | -42% | -6% | -5
COc1ccccc1-n1c(=S)sc2c(=O)n(Cc3ccco3)c(SC)nc21 | -2.4% | -8% | -5% | -7
CCn1c(SCc2cccc(F)c2)nnc1-c1ccncc1 | -3.1% | 3% | -4% | ·
Cc1ccc(-c2nnc(SCC(=O)NC3CCCc4ccccc43)n2N)cc1 (stereo unspecified) | 1.8% | -2% | 2% | -5
COCCCn1c(C)nnc1SCC(=O)Nc1ccc(C(C)=O)cc1 | 2.9% | -2% | 0% | ·
Cc1csc(SC(C)C(=O)NCc2ccc3c(c2)OCO3)n1 (stereo unspecified) | -2.7% | -3% | 6% | -8
CCOc1ccc(/C=N/n2c(SC)nnc2-c2ccccc2)cc1OCC | 1.1% | -1% | 0% | 5
Cc1csc(NC(=O)CSc2nc(=O)n(CCN(C)C)c3c2CCCC3)n1 | -1.2% | · | -5% | ·
CSc1ccc(C(=O)C2CCCN(C(=O)c3nn(C)c(=O)c4ccccc34)C2)cc1 (stereo unspecified) | 1.2% | -1% | 9% | -15

These rows are one share of the data; rates above refer to the full screens.
